# OXTR potentiator = potentiates the human oxytocin receptor response. P30559. CHO-OTR cells, Fluo-8 calcium fluorescence, potentiator mode; 0% = oxytocin EC15, 100% = EC100. activation, % at 3 µM. hit rate 0.061% among 320,000;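 active = activation above that plate's cutoff, the mean activation of tested compounds plus 3 SD, cut at about 6.6% in these data, passing the limit was not always enough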;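 also: 100% uses oxytocin at 75 nM as the full agonist control; some results filed as inactive read as strong as hits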
# Target sequence (P30559 whole entry, looked up): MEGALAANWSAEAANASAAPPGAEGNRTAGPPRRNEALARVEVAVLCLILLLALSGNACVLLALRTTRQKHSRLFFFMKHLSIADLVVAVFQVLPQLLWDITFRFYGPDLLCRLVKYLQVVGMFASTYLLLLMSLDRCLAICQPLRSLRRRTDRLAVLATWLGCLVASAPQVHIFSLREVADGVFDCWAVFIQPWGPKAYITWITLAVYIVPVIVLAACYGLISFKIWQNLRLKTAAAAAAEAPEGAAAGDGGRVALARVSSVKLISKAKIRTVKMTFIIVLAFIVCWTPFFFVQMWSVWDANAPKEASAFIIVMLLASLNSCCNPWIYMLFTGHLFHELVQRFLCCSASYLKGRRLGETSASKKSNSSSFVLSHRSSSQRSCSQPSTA
#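 Dosing: Single dose, 3.0 µM nominal final compound concentration | Material: Human OTR in CHO cells | Technique: Kinetic Fluo-8 calcium fluorescence | Benchmarks: EC15 oxytocin alone as 0%, 75 nM oxytocin as 100% | Probe or stimulus: Oxytocin at about EC15, sub-maximal agonist stimulus | Incubation: Compound 6 min at room temperature before oxytocin, 100 s read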
# CHO-K1 Ca ag = nonselective activator or artifact in parental CHO-K1 cells; Fluo-8 calcium fluorescence; scaled to maximal ATP response, vehicle zero; activation, % at 3 µM; hit rate 0.48% among 360,000; AID 602248; in the data active = activation above about 15%;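 also: untransfected CHO-K1 host cells lacking M1 receptor as counterscreen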
# M1 PAM parental = nonselective activator or artifact in parental CHO-K1 calcium assay; hit rate 0.02% among 360,000; ATP EC20, Fluo-8 calcium fluorescence; 0% at ATP EC20, 100% at ATP max; activation, % at 3 µM;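 active = activation above the run cutoff, the mean activation of all test compounds plus 3 SD, cut at about 40% in these data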;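 also: peak over basal fluorescence ratio in a 140 s read after ATP addition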
# CHO parental Ca = signal in parental CHO cells, OX1R antagonist counter-screen | parental CHO-K1, ATP-induced calcium, Fluo-8 fluorescence | inhibition, % at 5.6 µM | hit rate 0.63% among 330,000 | AID 463079;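 active = inhibition above that plate's mean sample inhibition plus 3 SD, cut at about 26% in these data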;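 also: 0% = ATP-challenged DMSO wells and 100% = DMSO wells without ATP; some compounds past the cut are filed as inactive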
#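 Measured by: calcium-sensitive Fluo-8 fluorescence / Test system: CHO parental line / Controls: ATP-challenged DMSO wells low, unchallenged DMSO wells high / Measure: % inhibition / Compound: single nominal dose of 5.6 µM per compound / Replicates: single well per compound, no replicates / Reagent: ATP as calcium-mobilizing challenge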
# CHO-K1 Ca antag = M1 antagonist counterscreen hit in parental CHO-K1 cells. ATP-induced calcium, Fluo-8 fluorescence. inhibition, % at 3 µM. hit rate 0.6% among 360,000. AID 602250;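 active = inhibition above a per-plate cutoff, the plate's mean sample inhibition plus 3 SD, cut at about 24% in these data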;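 also: 0% = DMSO plus EC80 ATP and 100% = DMSO alone without ATP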
# An asterisk follows results filed as active; / = not tested or not shown. These rows are one share of the data; the hit share may differ from the screen's.
entry	compound	OXTR potentiator	CHO-K1 Ca ag	M1 PAM parental
1	Cc1cccc(CN2CCN(C(c3ccccc3)c3ccc(Cl)cc3)CC2)c1 (stereo not given)	-18	0.2	11
2	COc1c(N2C[C@@H]3CCCN[C@@H]3C2)c(F)cc2c(=O)c(C(=O)O)cn(C3CC3)c12	0	-0.1	-7
3	O=C(O)C1C2C=CC(C2)C1C(=O)NCCc1cccc(Cl)c1 (stereo not given)	-5	-0.1	7
4	Cc1ccc(-n2c(C)cc(/C=N/Nc3ccc([N+](=O)[O-])cn3)c2C)cc1	-10	-0.6	16
5	OC(COc1ccc(CNCCc2ccccc2F)cc1)CN1CCCCC1 (stereo not given)	-7	0.1	-11
6	COC(=O)C1=C(C)NC(C)=C(C(=O)OCCN(C)Cc2ccccc2)C1c1cccc([N+](=O)[O-])c1 (stereo not given)	-9	2.9	-5
7	CCCCNC(=O)NS(=O)(=O)c1ccc(C)cc1	0	-0.4	-6
8	CC(=O)Nc1ccc(OCC(O)CNC(C)C)cc1 (stereo not given)	-1	-0.2	-11

entry	CHO parental Ca	CHO-K1 Ca antag
1	-30	-15
2	-10	8
3	-9	-1
4	-11	-9
5	-21	2
6	-20	12
7	-6	-2
8	-4	17

# Reprinted at random: 3 entries already listed.
entry	compound	OXTR potentiator	CHO-K1 Ca ag	M1 PAM parental
5	OC(COc1ccc(CNCCc2ccccc2F)cc1)CN1CCCCC1 (stereo not given)	-7	0.1	-11
1	Cc1cccc(CN2CCN(C(c3ccccc3)c3ccc(Cl)cc3)CC2)c1 (stereo not given)	-18	0.2	11
7	CCCCNC(=O)NS(=O)(=O)c1ccc(C)cc1	0	-0.4	-6

entry	CHO parental Ca	CHO-K1 Ca antag
5	-21	2
1	-30	-15
7	-6	-2

# Continued:
entry	compound	OXTR potentiator	CHO-K1 Ca ag	M1 PAM parental
9	CCCCCC(O)C=CC1C(O)CC(O)C1CC=CCCCC(=O)O (stereo not given)	/	0.5	18
10	O=C(NCCc1ccccc1)c1cnc2n(c1=O)CCS2	-11	0.3	19
11	O=C(Cn1cnc2ccccc21)N/N=C/c1cccs1	-4	5.2	26
12	O=c1[nH]cc(NCCc2ccccc2)c(=O)[nH]1	3	0.6	8
13	CCOC(=O)C(NCCc1ccccc1)(NC(C)=O)C(F)(F)F (stereo not given)	-7	-0.2	-4
14	C(=NOCCc1ccccc1)c1cccnc1	/	-0.3	-20
15	CC[N+](C)(C)Cc1ccccc1Br	-4	0.4	-2
16	CCC(=O)OCC(=O)[C@@]1(OC(=O)CC)[C@@H](C)C[C@H]2[C@@H]3CCC4=CC(=O)C=C[C@]4(C)[C@@]3(Cl)[C@@H](O)C[C@@]21C	-4	0.6	11

entry	CHO parental Ca	CHO-K1 Ca antag
9	/	-22
10	-7	-10
11	-12	-7
12	-21	-8
13	-1	2
14	/	13
15	-2	6
16	-25	1

# Compounds shown so far with fluorine:
entry	compound	OXTR potentiator	CHO-K1 Ca ag	M1 PAM parental
2	COc1c(N2C[C@@H]3CCCN[C@@H]3C2)c(F)cc2c(=O)c(C(=O)O)cn(C3CC3)c12	0	-0.1	-7
5	OC(COc1ccc(CNCCc2ccccc2F)cc1)CN1CCCCC1 (stereo not given)	-7	0.1	-11
13	CCOC(=O)C(NCCc1ccccc1)(NC(C)=O)C(F)(F)F (stereo not given)	-7	-0.2	-4

entry	CHO parental Ca	CHO-K1 Ca antag
2	-10	8
5	-21	2
13	-1	2

# The results go on:
entry	compound	OXTR potentiator	CHO-K1 Ca ag	M1 PAM parental
17	CN=C(NC#N)NCCSCc1nc[nH]c1C	-2	1.8	15
18	CN1C(C(=O)NCCc2cccs2)CC2Cn3c(nc4ccccc43)C21 (stereo not given)	-2	0.2	18
19	CCCn1c(SCC(=O)N2CCc3ccccc3C2)nc(O)cc1=O	0	2.2	11
20	CC(COc1ccccc1)N(CCCl)Cc1ccccc1 (stereo not given)	-2	0.6	20
21	Cc1cc(Br)c(OCc2ccc(C(=O)N/N=C/c3ccc[nH]3)cc2)c(Br)c1	-6	-0.6	-2
22	c1ccc(-c2ccc(C(c3ccccc3)n3ccnc3)cc2)cc1 (stereo not given)	-3	-0.1	-10
23	CN(C)S(=O)(=O)c1ccc(C(=O)NCC(=O)N/N=C/c2ccccc2)cc1	-7	0.2	8
24	CN1C2CCC1CC(OC(=O)C(CO)c1ccccc1)C2 (stereo not given)	-5	/	/
25	Oc1ccc(Cl)cc1C=NCCc1ccccc1	-4	0.5	19

entry	CHO parental Ca	CHO-K1 Ca antag
17	-1	-4
18	-13	-19
19	-6	-15
20	-11	-12
21	-19	-13
22	-8	7
23	-4	1
24	3	/
25	-6	-3

# Some of these compounds in order of their number in OXTR potentiator, lowest first.
entry	compound	OXTR potentiator
21	Cc1cc(Br)c(OCc2ccc(C(=O)N/N=C/c3ccc[nH]3)cc2)c(Br)c1	-6
24	CN1C2CCC1CC(OC(=O)C(CO)c1ccccc1)C2 (stereo not given)	-5
22	c1ccc(-c2ccc(C(c3ccccc3)n3ccnc3)cc2)cc1 (stereo not given)	-3
17	CN=C(NC#N)NCCSCc1nc[nH]c1C	-2
19	CCCn1c(SCC(=O)N2CCc3ccccc3C2)nc(O)cc1=O	0

# Compound activity from PubChem.
